# Screens: PubChem, National Center for Advancing Translational Sciences (NCATS)
# Cruzain inh Det: cruzain (T. cruzi) inhibition with detergent | purified cruzain, Z-FR-AMC fluorescence, 0.01% Triton | P25779 | hit rate 0.43% among 200,000 | Potency, µM, inactives show max response, negative = inhibition, actives largely listed as inhibitors;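 further: plate controls were neutral wells for no effect and buffer without enzyme for full effect; nearly all actives have a fitted effect of over 40% in size; top concentration of the series not given in the record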
# Target sequence (P25779 123-467 limits assumed): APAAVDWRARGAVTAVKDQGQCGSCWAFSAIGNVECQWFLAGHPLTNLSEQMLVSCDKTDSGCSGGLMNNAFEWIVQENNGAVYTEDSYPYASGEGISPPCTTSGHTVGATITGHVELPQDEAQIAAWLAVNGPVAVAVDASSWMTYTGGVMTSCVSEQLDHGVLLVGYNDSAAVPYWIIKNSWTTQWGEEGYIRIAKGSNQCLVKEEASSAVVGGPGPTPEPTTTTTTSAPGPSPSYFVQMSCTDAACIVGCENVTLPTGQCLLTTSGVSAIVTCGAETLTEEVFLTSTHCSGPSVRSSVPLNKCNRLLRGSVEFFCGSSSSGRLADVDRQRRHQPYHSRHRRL
#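 15 min RT preincubation of 1.5 nM cruzain with compound, then 2 uM Z-FR-AMC added; kinetic AMC fluorescence, 60 s delta. Triton X-100 0.01%, pH 5.5.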
# LASV entry inh: blocks Lassa virus binding to or entry into cells. AID 540256. hit rate 1.2% among 300,000. Potency, µM (series often up to 37.9 µM), for inactives: at the highest dose activity change, negative = inhibition, most hits filed as inhibitors. Lassa virus pseudotype entry inhibition, cell reporter; control for the full effect not named in the record; active means well fitted inhibition curve with a large enough effect; inconclusive means small, poorly fitted or top-dose-only effect, or effect the other way; inactive means flat fitted curve, though single readings scatter; tested in HEK293 cells; further: on the % scale 0 is the no-effect control and ±100 the full control effect; nearly all actives have a fitted effect of over 50% in size; luciferase read-out
# MARV entry inh: inhibitors of Marburg virus binding or cell entry; Marburg virus pseudotyped entry inhibition, cell reporter; control for the full effect not named in the record; about a third of the inactives were read at about 46 µM; Potency, µM (highest dose often 37.8 µM), without a hit: at the highest dose activity change, negative = inhibition, hits mostly inhibitors; hit rate 1.8% among 300,000; active = well fitted inhibition curve with a large enough effect; inconclusive = small, poorly fitted or top-dose-only effect, or effect the other way; inactive = flat fitted curve, though single readings scatter; tested in HEK293 cells; about a fifth of its hits are not listed in these tables; further: on the % scale 0 is the no-effect control and ±100 the full control effect; luciferase read-out
# Cruzain inh noDet: blocks cruzain activity in detergent-free assay; P25779; purified cruzain, Z-FR-AMC fluorescence, no detergent; Potency, µM, without a hit: max response, negative = inhibition, hits mostly inhibitors; hit rate 2.3% among 200,000; AID 1476;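 further: plate controls were enzyme without inhibitor for no effect and buffer without enzyme for full effect; nearly all actives have a fitted effect of over 40% in size; top concentration of the series not given in the record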
#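 Detergent-free condition (0.00005% Triton X-100) in acetate buffer pH 5.5 with DTT. 1.5 nM enzyme and compound were pre-mixed 15 min, then 2 uM Z-FR-AMC substrate added; reaction progress from fluorescence change between first and third reads (60 s).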
# SARS PLpro yeast: inhibitors of SARS-CoV papain-like protease in yeast; S. cerevisiae expressing SARS-CoV PLpro, growth rescue; control for the full effect not named in the record; Potency, µM (doses to about 32.9 µM), for inactives: at the top dose activity, positive = growth rescue; AID 485353; hit rate 0.19% among 330,000; active means well fitted rising curve with a large enough effect; inconclusive means small, poorly fitted or top-dose-only effect; inactive means no such curve, though single readings can be large or run the other way; further: 0% is about no effect; nearly all actives have a fitted effect of over 55% in size; growth read by luminescence after 48 h
# StopGo reporter: lowers the luciferase signal of an FMDV 2A StopGo reporter | human cells with a luciferase reporter of 2A StopGo recoding; control for the full effect not named in the record | Potency, µM (highest dose often 57.9 µM), without a hit: at the highest dose signal change, negative = less light | hit rate 1.2% among 410,000 | AID 1159524; active = well fitted falling curve with a large enough effect; inconclusive = small, poorly fitted or top-dose-only effect; inactive = no such curve, though single readings can be large or run the other way; tested in HEK293T cells; further: on the % scale 0 is the no-effect control and ±100 the full control effect; nearly all actives have a fitted effect of over 45% in size; luciferase light after 4 h
# RE007 growth inh: less growth of the S. pombe RE007 Vpr strain; hit rate 0.21% among 360,000; Potency, µM (series often up to 92.2 µM), without a hit: at the highest dose activity change, negative = less growth; S. pombe RE007 Vpr strain, BacTiter-Glo ATP luminescence, 24 h; control for the full effect not named in the record; active = well fitted falling curve with a large enough effect; inconclusive = small, poorly fitted or top-dose-only effect; inactive = no such curve, though single readings can be large or run the other way;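 further: on the % scale 0 is the no-effect control and ±100 the full control effect; nearly all actives have a fitted effect of over 50% in size; the assay follows cell death caused by Vpr and the record does not say whether a fall means rescue or toxicity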
#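 Fission yeast RE007 carrying one integrated HIV-1 vpr copy, seeded at OD 0.01 in PMG+AL medium with 23 nL pinned compound. Grown 24 h at 30 degrees; viability read by BacTiter-Glo luminescence after 5 min.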
# NS1 function inh: influenza NS1 inhibition; S. cerevisiae slowed by influenza A NS1, growth recovery by OD600; Potency, µM (top dose mostly 46.1 µM), without a hit: at the highest dose activity, positive = more growth; hit rate 0.4% among 270,000; AID 2326; active means well fitted rising curve with a large enough effect; inconclusive means small, poorly fitted or top-dose-only effect; inactive means no such curve, though single readings can be large or run the other way; further: nearly all actives have a fitted effect of over 50% in size
#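 Recovery from NS1-induced slow growth read by OD600 in budding yeast switched to galactose assay medium (pH 6.0, -URA) at 1:100 dilution. Compound 23 nl per well; the matching strain lacking NS1 serves as control.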
# The depositor's hits bear a star; ? = inconclusive; nt = no result given; & = joins results of further samples; [ ] = another dose, or the depositor's remark. Unless noted, the call rests on the fitted dose curve; in most records, active means well fitted curve in the direction sought with a large enough effect; inconclusive means small, poorly fitted or top-dose-only effect, or another doubt; inactive means no such curve, though single readings can be large; an effect the other way counts as inactive or inconclusive. Potency means the concentration at half of the fitted maximal effect. Rows were taken by chance; about 4.7% have a hit in one of these screens.
SMILES,Cruzain inh Det,LASV entry inh,MARV entry inh,Cruzain inh noDet,SARS PLpro yeast,StopGo reporter,RE007 growth inh,NS1 function inh
Cc1cccc(C(=O)NNC(=S)NC(=O)c2ccccc2)c1,nt,?,?,nt,nt,?,-15%,nt
COC(=O)C(C)Sc1nnc2cc(C)c3cc(C)cc(C)c3n12 (stereo not given),-0.5%,10%[46.1 µM],5%[46.1 µM],1%,nt,-10%,nt,nt
COc1ccc(C(=O)CSc2nnc(-c3cccs3)n2-c2ccccc2)cc1,5.3%,-16%,3%,-9%,0%,-23%,-6%,0%
Cc1ccc(NC(=O)CSc2nc3ccccc3c(=O)n2Cc2cccs2)cc1,0.0%,-1%,13%,-19%,4%,45%[activator],2%,7%
Cc1ccc([N+](=O)[O-])cc1NC(=O)Cc1cccs1,nt,-1%,10%[46.1 µM],nt,-1%,-4%,0%,nt
CCOc1ccc(S(=O)(=O)N(C)CC(=O)N2CCN(CC)CC2)cc1,nt,-3%,26%[46.1 µM],nt,-2%,-11%,-1%,-10%
COc1ccc2c(c1)c(=O)oc1cc3oc(C)c(C)c3cc12,-4.3%,nt,-4%,-22%,9%,nt,nt,-1%
CCn1c(C)nc2cc(C(=O)NNC(=S)Nc3ccc(F)cc3)ccc21,nt,nt,nt,nt,0%,44%[activator],-4%,-5%
COc1ccc(N2C(=O)C(O)C2c2ccc(C)cc2)cc1 (stereo not given),-2.5%,-2%,-22%,1%,25%,17%,-12%,9%
O=C(C[n+]1cccc(CNC(=O)c2ccc(OC(F)F)cc2)c1)Nc1cc(C(F)(F)F)ccc1Cl,-2.0%,-1%,7%,-6%,-2%,-24%,22%,5%
CCOC(=O)Cn1c(=O)c(F)cn(Cc2ccc(OC)c([N+](=O)[O-])c2)c1=O,nt,-5%,?,nt,1%,-3%,-3%,7%
CCN(CC(=O)NCc1ccc(F)cc1)C(=O)c1ccc(Cl)cc1,nt,nt,nt,nt,1%,-2%,8%,2%
CCOC(=O)NC(NC(=S)Nc1ccccc1[N+](=O)[O-])C(Cl)(Cl)Cl (stereo not given),-0.8%,5%,-20%,-1%,10%,nt,-9%,8%
O=C(NNC(=O)C12CC3CC(CC(C3)C1)C2)c1ccccc1[N+](=O)[O-],nt,8%[46.1 µM],15%[46.1 µM],nt,-5%,1%,11%,1%
O=c1c2sccc2nc(SCc2ccc([N+](=O)[O-])cc2)n1Cc1ccccn1,-4.7%,?,?,-6%,10%,-28%,14%,12%
CCC1COC(c2cccn2Cc2ccc(Cl)cc2)=N1 (stereo not given),nt,0%,-10%[46.1 µM],nt,7%,-18%,4%,nt
Cc1nc2cc(NC(=O)CSc3nc4c(C)cccc4cc3C#N)ccc2s1,4.2%,6%,-26%,?,-4%,26%,11%,0%
Cc1ccc(C2CCN(C(=O)Nc3ccc(F)cc3)C2)cc1 (stereo not given),nt,?,?,nt,-5%,12%,8%,nt
O=C1C2CC=CCC2C(=O)N1c1ccc(OCC(O)Cn2nnc3ccccc32)cc1 (stereo not given),2.7%,5%,8%,-12%,20%,?,-4%,-11%
CCN(c1ccccc1)S(=O)(=O)c1ccc(OC)c(OC)c1,3.0%,1%,-15%,3%,-5%,0%,9%,-6%
CN1CCN(C(=S)NC(=O)c2cccc([N+](=O)[O-])c2)CC1,nt,nt,nt,nt,-4%,-3%,-4%,1%
COC(=O)[C@@H](NC(=O)c1cc(COc2cncc(Cl)c2)on1)c1ccccc1,nt,8%,-20%,nt,-4%,51%[activator],-19%,-8%
CCc1ccc(C(=O)N/N=C/c2cccc3ccccc23)nc1,-1.4%,6%,?,-18%,-5%,15%,-19%,3%
CCN(CC(=O)NCc1ccc(F)cc1)C(=O)CN1CCN(c2ccc(OC)cc2)CC1,nt,7%,?,nt,0%,-1%,3%,4%
COc1ccc(-n2c(SCC(=O)N3CCOCC3)nnc2C(C)N2CCCCC2)cc1 (stereo not given),nt,nt,nt,nt,2%,-16%,-2%,0%

# More entries:
SMILES,Cruzain inh Det,LASV entry inh,MARV entry inh,Cruzain inh noDet,SARS PLpro yeast,StopGo reporter,RE007 growth inh,NS1 function inh
Cc1cc(NC(=O)c2ccccc2)n(C(C)(C)C)n1,nt,nt,nt,nt,-1%,-2%,3%,0%
COc1ccc2[nH]c(=O)c(CN(CCN(C)C)C(=O)NCc3ccccc3)cc2c1,-2.9%,1%,10%,-10%,-5%,-23%,10%,3%
O=C(O)CCSc1nc2ccc(Br)cc2[nH]1,0.4%,2%,2%,-1%,7%,9%,-6%,2%
CC(O)c1ccc(OCCN(C)c2ccccn2)cc1 (stereo not given),nt,-26%,?,nt,-1%,52%[activator],1%,0%
O=C(NCc1ccco1)c1ccc2c(c1)C(=O)N(Cc1ccccc1)C2=O,-4.4%,9%,13%,-10%,-2%,-30%,20%,-34%
CC(=O)Nc1ccc2nc(C)n(Cc3ccc(Cl)cc3)c(=O)c2c1,-2.3%,4%,10%,53%,-28%,27%,13%,-13%
CCCCC#Cc1nc(N)c2ncn([C@@H]3O[C@H](C(=O)NCC)[C@@H](O)[C@H]3O)c2n1,-1.9%,nt,-10%&-10%,?,nt,nt,nt,4%
Cc1ccc(/C=N/NC(=O)CSc2nc3ccccc3n2Cc2ccccc2)o1,-5.1%,-24%,-25%,14%,-24%,-7%,8%,13%
COc1ccccc1CCNC(=O)CCCn1nc(C)c2c(C)n(-c3ccc(C)cc3)nc2c1=O,nt,nt,nt,nt,1%,?,-11%,9%
Cc1nc(C(F)(F)F)c(C(=O)NC(=O)Nc2ccccc2)s1,4.4%,-3%,9%,0%,17%,38%[activator],-6%,-4%
O=C(Nc1ccc(N2CCOCC2)c(S(=O)(=O)Nc2ccc(Cl)cc2)c1)c1cnccn1,nt,nt,nt,nt,-1%,23%,-5%,-6%
CC/C(=N\NC(=O)OC)c1ccc(OC(F)F)cc1,nt,nt,nt,nt,?,-17%,-4%,-5%
COc1ccc(C2CC(c3ccc(F)cc3)Nc3nc(N)nn32)cc1 (stereo not given),-1.2%,-8%,-9%,-11%,11%,-12%,11%,5%
COCC(=O)Nc1ncc(S(=O)(=O)c2ccc([N+](=O)[O-])cc2)s1,nt,15%,-1%,nt,2%,-21%,30%,nt
CCc1nnc(NC(=O)CN2CCN(c3nc(-c4ccccc4)cs3)CC2)s1,-3.3%,1%,-3%,?,13%,?,-8%,-32%
CCOc1cccc(-c2nnc(SCC(=O)Nc3cc(C)ccc3OC)n2N)c1,-2.9%,9%,-18%,?,2%,-7%,-7%,14%
COc1ccc(C(=O)c2ccc(Cl)cc2Cl)cc1,-3.9%,2%,4%,-8%,-1%,-15%,-20%,-12%
CCOC(=O)c1cnc(SC2CC(=O)N(c3ccccc3)C2=O)nc1N (stereo not given),0.3%,-1%,13%[46.1 µM],7%,-11%,3%,13%,3%
COc1ccc(/C=C2/SC(=O)N(NS(=O)(=O)c3ccccc3)C2=S)cc1OC,-14%,5%,-7%,17%,-19%,-11%,-4%,-58%
CCc1ccc(S(=O)(=O)Nc2ccc3[nH]c(=O)sc3c2)cc1,-7.1%,?,nt,-1%,nt,26%,nt,nt
Cc1c(Cl)cccc1NC(=S)N(CCCN1CCOCC1)Cc1ccco1,nt,-7%[46.1 µM],?,nt,0%,-11%,9%,nt
CCCNc1nc2c(c(=O)n(C)c(=O)n2C)n1CCc1ccccc1,1.0%,?,?,2%,-9%,14µM*,9%,-3%
O=C(CCNS(=O)(=O)c1cccc2nsnc12)NCCC1=CCCCC1,0.9%,15%,?,-16%,7%,13%,14%,-3%
CCCc1c(C(=O)N/N=C/c2sccc2C)nnn1-c1nonc1N,nt,nt,nt,nt,-1%,3%,2%,6%
CC(=NCCc1c(C)[nH]c2ccc(OC(F)(F)F)cc12)C1=C(O)CC(c2ccccc2)CC1=O (stereo not given),nt,nt,?,nt,0%,?,-6%,nt

# More compounds follow.
SMILES,Cruzain inh Det,LASV entry inh,MARV entry inh,Cruzain inh noDet,SARS PLpro yeast,StopGo reporter,RE007 growth inh,NS1 function inh
CCN(C(=O)C(NS(=O)(=O)c1cccc2nsnc12)c1ccccc1)c1ccccc1 (stereo not given),-7.0%,-16%[46.1 µM],?,4%,nt,38%[activator],nt,nt
Cc1nc(/N=C(\N)NC(=O)c2ccccc2)nc2ccccc12,-11%,1%,?,3%,-12%,40%[activator],-12%,-7%
CCCN(Cc1cccs1)C(=O)Nc1cc(Cl)c(OC)cc1OC,-6.9%,-18%[46.1 µM],-4%[46.1 µM],6%,nt,1%,nt,nt
COc1ccc(NC(=O)c2c(NCc3cccc(F)c3)sc3c2CCC3)c(OC)c1,-7.3%,-10%[46.1 µM],nt,0%,nt,3%,nt,nt
Cc1nn(-c2cc(N3CCNCC3)ccc2[N+](=O)[O-])c(=O)c2ccccc12,-1.5%,13%,1%,-2%,13%,-25%,-15%,4%
O=C1C(O)CCN1Cc1ccccc1 (stereo not given),nt,0%[46.1 µM],5%[46.1 µM],nt,nt,0%,-14%,nt
N=c1c2c3c(sc2nc2n1CCCCC2)CCCC3,-7.4%,17%,-15%,-11%,-9%,18%,-14%,-3%
CCOc1cc(/C=C2\C(=O)NN(c3ccccc3)C2=O)cc([N+](=O)[O-])c1O,nt,2%,2%[46.1 µM],nt,2%,-25%,19%,nt
CC1CC(C)(C)CC2(C1)NC(=O)N(CC(=O)OCC(=O)Nc1cc(S(=O)(=O)N3CCCCC3)ccc1Cl)C2=O (stereo not given),nt,-11%,5%,nt,nt,-16%,23%,nt
CCn1c2ccccc2c2cc(NS(=O)(=O)c3ccccc3C)ccc21,0.3%,?,?,-15%,-19%,28%,12%,10%
C=CCOc1ccc(/C=C2\C(=N)N3N=C(S(=O)(=O)CC)SC3=NC2=O)cc1OC,nt,8%,0%[46.1 µM],nt,4%,-1%,-11%,nt
CCCNC(=S)N1CCN(C(c2ccccc2)c2ccccc2)CC1,-2.9%,-7%,-22%,-6%,-9%,-17%,18%,-9%
CN1CCC(=NNC(=O)C(=O)NC2CCCCC2)CC1,5.0%,1%,18%,-2%,-4%,nt,-13%,1%
CC(C(=O)Nc1ncc2c(n1)CC(C)(C)CC2=O)N1C(=O)c2ccccc2C1=O (stereo not given),-2.3%,-2%,1%,-6%,0%,-10%,1%,12%
